Rce1 inhib: blocks yeast Ras-converting enzyme; calls only; 0.27% of 290,000 active; Q03530; yeast membranes, quenched prenylated peptide cleavage fluorescence;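 active = fall in fluorescence gain of 50% or more versus controls, with final raw signal at or below 3038400; inconclusive = same 50% fall but final raw signal above 3038400; inactive = fall in fluorescence gain under 50%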;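 also: plate controls were neutral control wells for no effect and wells lacking membranes for full effect; tested at 10 µM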
Env fusion inh: HIV envelope-mediated fusion inhibition. HeLa-JRFL Env/CEM21 cell fusion, luciferase. inhibition, % at 12.3 µM. 1.1% of 360,000 active. AID 651610;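 active = mean replicate inhibition score of at least 50 and every replicate individually at or above 50; inconclusive = only one of the two criteria met; inactive = mean below 50 and not all replicates reaching 50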;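 also: 0% = plate neutral controls and 100% = maraviroc near 300 nM; one replicate is shown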
PABP polyA inh: PABP-poly(A) binding inhibition; P11940; PABP-poly(A) RNA binding, fluorescence polarization; inhibition, % at 35 µM; 1% of 290,000 active; AID 2014;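 active = 50% or more with normal probe brightness, or confirmed in later tests; inconclusive = above 50% with abnormal brightness, or retests that disagree; inactive = below 50% or failed in later tests; about a fifth of its hits are not listed in these tables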;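 also: calls also rest on retests at 20 µM and on dose response follow-up; controls were probe without protein and protein plus probe with vehicle; some compounds called inactive have numbers as strong as hits; many hits fall short of the cut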
Target sequence (P11940 whole entry, looked up): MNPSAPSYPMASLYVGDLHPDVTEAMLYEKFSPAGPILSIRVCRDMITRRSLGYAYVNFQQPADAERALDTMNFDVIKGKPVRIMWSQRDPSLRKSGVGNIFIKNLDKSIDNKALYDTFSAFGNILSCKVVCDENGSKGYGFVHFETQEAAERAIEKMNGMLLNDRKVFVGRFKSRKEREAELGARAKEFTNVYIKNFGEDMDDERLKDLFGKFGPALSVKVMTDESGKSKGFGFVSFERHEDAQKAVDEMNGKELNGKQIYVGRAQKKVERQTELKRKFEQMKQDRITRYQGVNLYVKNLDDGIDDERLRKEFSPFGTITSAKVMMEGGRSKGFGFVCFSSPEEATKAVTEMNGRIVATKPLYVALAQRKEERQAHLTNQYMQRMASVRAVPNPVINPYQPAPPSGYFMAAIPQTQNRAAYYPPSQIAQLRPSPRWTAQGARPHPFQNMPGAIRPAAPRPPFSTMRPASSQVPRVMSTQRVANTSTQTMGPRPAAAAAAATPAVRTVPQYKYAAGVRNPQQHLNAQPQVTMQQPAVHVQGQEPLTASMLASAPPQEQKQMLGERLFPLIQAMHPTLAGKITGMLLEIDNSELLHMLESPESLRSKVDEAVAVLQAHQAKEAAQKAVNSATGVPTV
MT1-MMP act inh: blocks activation of human MT1-MMP. P50281. 0.061% of 360,000 active. HT1080 RFP-PRO-GFP cells, GFP/RFP ratio fluorescence, overnight; percent of plate control window, DMSO zero. GFP/RFP ratio change, % at 20 µM;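 active = GFP/RFP ratio change of at least 30% with cell ATP level not reduced by more than half and red fluorescence within 50% of control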; also: strong numbers were not always called active
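Assay system: HT1080 RFP-PRO-GFP cells. Benchmarks: DMSO vehicle wells and RFP-L50D-GFP reporter cell wells. Times: overnight cell settling, then overnight compound exposure, 37 °C, 5% CO2. Compound: 20 µM single dose, 1% DMSO. Read-out basis: GFP/RFP fluorescence ratio.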
eIF4H FP inh: inhibitors of RNA binding by human eIF4H. Q15056. AID 2012. eIF4H fluorescence polarization binding assay. 0.94% of 290,000 active. inhibition, % at 35 µM;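 active = 50% or more with normal probe brightness, or confirmed in later tests; inconclusive = above 50% with abnormal brightness, or retests that disagree; inactive = below 50% or failed in later tests; about a fifth of its hits are not listed in these tables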;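 also: calls also rest on retests at 20 µM and on dose response follow-up; 0% = protein and probe with vehicle and 100% = probe without protein; strong numbers were not always called active; many hits fall short of the cut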
CSC inhib: blocks cancer stem cells. 1.1% of 300,000 active. inhibition, % at 7.5 µM. AID 2717. cancer stem cell-like cells viability, luminescence;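 active = mean at 75% or more and at least half the replicates too; inconclusive = mean and replicates disagree; tested in HMLE shEcad cells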;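 also: 0% = median of negative and 100% = median of positive control wells; the first replicate is given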
UUG fidelity: yeast start codon fidelity modulation; S. cerevisiae UUG-firefly luciferase reporter, luminescence/redox ratio; 0.13% of 350,000 active; activity score, % at 18.7 µM;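 active = replicate mean at a twofold rise or more, about +100% in these data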;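 also: firefly luciferase made from a UUG start codon reports start codon fidelity; reporter light over untreated wells divided by growth signal over untreated wells; some hits fall short of that in this replicate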
eIF4H FP inh retest: recorded beside eIF4H FP inh, whose call it bears; inhibition, %; compound at 20 µM; confirmation average;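 mean of two retest wells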
PABP polyA inh retest: also measured in PABP polyA inh; calls as there; inhibition, %; compound at 20 µM; confirmation repeats;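 mean of two retest wells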
MT1-MMP act inh RFP: further read-out of MT1-MMP act inh, marked with its call; RFP signal change, %; measured here: RFP expression control read;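 0 = vehicle wells; hits needed this value within 50% of zero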
Active calls of the source: *; i = inactive; u = inconclusive; x = no result given; & = joins results of further samples; [ ] = another dose, or the depositor's remark.

The opening 2 entries (preview)
SMILES | Rce1 inhib | Env fusion inh | PABP polyA inh | MT1-MMP act inh | MT1-MMP act inh RFP | eIF4H FP inh | CSC inhib | UUG fidelity | others
C[C@H](CO)N1C[C@H](C)[C@@H](CN(C)Cc2ccc(Cl)c(Cl)c2)Oc2ccc(NC(=O)Cn3cnnn3)cc2C1=O | x | 8[16.7 µM] | x | 2 | 1 | x | -9 | -1&-4
Cc1cc(C)cc(OCc2ccc(C(=O)NC3CCOC3=O)o2)c1 (stereo unspecified) | i | -12 | -2 | 4 | 4 | -3 | 9 | x

The listing (from the top)
SMILES | Rce1 inhib | Env fusion inh | PABP polyA inh | MT1-MMP act inh | MT1-MMP act inh RFP | eIF4H FP inh | CSC inhib | UUG fidelity | others
C[C@H](CO)N1C[C@H](C)[C@@H](CN(C)Cc2ccc(Cl)c(Cl)c2)Oc2ccc(NC(=O)Cn3cnnn3)cc2C1=O | x | 8[16.7 µM] | x | 2 | 1 | x | -9 | -1&-4
Cc1cc(C)cc(OCc2ccc(C(=O)NC3CCOC3=O)o2)c1 (stereo unspecified) | i | -12 | -2 | 4 | 4 | -3 | 9 | x
Brc1ccccc1-n1nnc(-c2ccnc3ccccc23)n1 | i | -34 | -2 | -5 | -21 | 6 | 32 | -28
COc1cc(CNCCNC(=O)c2cccs2)cc(OC)c1OC | i | -12 | 4 | 3 | 5 | 7 | -1 | -15
COc1cccc(/C=C/C(=O)OCC(=O)N2CCN(c3ccccc3)CC2)c1 | x | 11 | x | 3 | 3 | x | -19 | -7
CCCc1[nH]nc2c1C(c1cccc(OC)c1)C(C#N)=C(N)O2 (stereo unspecified) | i | x | 6 | -7 | -8 | -5 | -4 | -16
Cc1ccc(C(=O)OCC(=O)N2CC(C)CC(C)C2)cc1S(=O)(=O)N1CCCCC1 (stereo unspecified) | i | 2 | x | 1 | -5 | x | -2 | -14
C=C(C)Cn1c(SCC(=O)O)nc2c1c(=O)[nH]c(=O)n2C | i | 3 | 5 | 5 | 6 | -4 | -10 | -14
COc1ccc(OCc2cc(C(=O)O)c(C)o2)cc1 | i | x | 48* | x | x | u | -10 | x | PABP polyA inh retest=94*
CN(Cc1cnccn1)Cc1nc(Cc2ccccc2Cl)no1 | i | -4 | -4 | -1 | 1 | 5 | -10 | x
CC(C)Oc1ccc(CNC(=O)CCC(=O)N2CC(C)Sc3ccccc32)cc1 (stereo unspecified) | i | -6 | -12 | x | x | -4 | x | 14
CCOC(=O)C1(CCc2ccccc2)CCN(C(=O)c2cccc(C)n2)CC1 | i | -2 | 5 | -2 | 1 | 2 | -1 | x
COc1ccc(S(=O)(=O)N2c3cc(C)ccc3OCC2C(C)(C)C)cc1 (stereo unspecified) | i | -37 | 0 | -3 | -15 | -12 | 47 | -24
c1ccc2c(c1)Cn1c-2nc2ccccc21 | i | x | 2 | -1 | -4 | -7 | 40 | -30
Cc1cc2cc(CCNC(=O)c3ccc(C)c([N+](=O)[O-])c3)c(=O)[nH]c2cc1C | i | 28 | 6 | 1 | -8 | -13 | 1 | 7
Cc1[nH]c2ccccc2c1C(=O)C(=O)N1CCN(c2ccccc2)CC1 | i | 4 | 3 | -1 | -1 | 1 | -15 | -6
COC(=O)C1=C(C)N(Cc2ccccc2)C(=NCCCCO)N[C@H]1CCc1ccccc1 | i | -15 | x | -4 | 2 | x | 8 | 10
CNC(=S)N(CCc1c(C)[nH]c2ccc(Cl)cc12)Cc1cc(OC)c(OC)c(OC)c1 | i | -5 | 18 | 1 | -10 | -10 | 4 | -15
CC(=O)Nc1ccc(NC(=O)C(NC(=O)c2ccc(Cl)cc2)C(C)C)cc1 (stereo unspecified) | x | 2 | x | 0 | 0 | x | x | -8
CC1CCCC(N2CCN(C(=O)c3ccccc3F)CC2)C1 (stereo unspecified) | i | 21 | -4 | 1 | 0 | -5 | -4 | -14
O=S(=O)(Nc1ncccn1)c1ccc(NC(=S)Nc2ccccc2Cl)cc1 | i | 1 | -2 | 5 | 6 | -17 | -9 | x
Cc1cc(C)c2c(N)c(C(=O)c3ccccc3)sc2n1 | i | 19 | 5 | 1 | -4 | -8 | -2 | -13
Cc1cc2n(n1)SC(Nc1ccccc1)N2 (stereo unspecified) | i | x | 8 | 3 | 5 | -10 | -1 | x
N#CC1=C(N)SC(N)=C(C#N)C1CCc1ccccc1 | i | 47 | u | -75 | -1 | u | 31 | -17
O=C(O)C1=NOC(CNC(=O)c2ccccc2Cl)C1 (stereo unspecified) | i | 2 | -2 | 3 | 2 | 2 | -21 | x
CCOC(=O)CSc1nc(CC)nc2ccccc12 | i | x | -10 | 0 | 8 | 1 | -6 | x
C=CCNC(=O)c1ccc(-c2nc3ccccc3nc2-c2ccccc2)cc1 | i | 27 | x | -3 | -2 | x | x | -6
Cc1ccc(-n2cc(CNCCCN3CCCC3=O)c(-c3ccc(F)cc3)n2)cc1 | i | -15 | -6 | 0 | -2 | -9 | 5 | x
Cc1ccc(-c2cc(O)cc3sc(=O)oc23)cc1C | i | 2 | -8 | -6 | 3 | 0 | 44 | x
CC1CCC(NC(=O)C(NC(=O)c2ccccc2)C(C)C)CC1 (stereo unspecified) | x | 23 | -9 | 0 | -1 | -5 | 7 | x
Cc1ccc(O)c(CC(C)C)n1 | i | x | -3 | 9 | 3 | 2 | 31 | -20
CCCCCCn1cc(C(=O)O)c(=O)c2cc(F)c(N3CCCCC3)cc21 | i | 25 | -1 | -4 | 1 | -12 | -5 | -7
O=C1CCCN1S(=O)(=O)c1ccccc1 | i | 20 | -14 | -2 | 0 | -8 | -4 | x
O=C(NC1CCCC1)C(c1ccccn1)N(C(=O)c1csnn1)C1CCCCC1 (stereo unspecified) | i | -24 | 3 | 2 | 2 | 4 | -3 | -6
CCOC(=O)c1cnc2c(Cl)c(Cl)ccc2c1N1CCN(C)CC1 | i | -33 | -6 | -10 | -8 | -1 | -6 | -15
O=c1n(-c2ccc(Br)cc2)cnn1-c1ncccc1[N+](=O)[O-] | i | -30 | -2 | 3 | 5 | -8 | -6 | x
CCOC(=O)c1[nH]c(C)c(/C(O)=C2\C(=O)C(=O)N(CCN3CCOCC3)C2c2ccco2)c1C (stereo unspecified) | i | 22 | 4 | -7 | -2 | 6 | -2 | -13
Cc1cccc(N(CC(=O)O)CC(=O)O)c1 | i | 7 | -6 | 5 | 6 | -10 | -8 | x
C[C@H](CO)N1C[C@H](C)[C@@H](CN(C)C(=O)NC2CCCCC2)Oc2c(NS(=O)(=O)c3ccc(F)cc3)cccc2C1=O | x | 12 | x | 3 | 2 | x | 12 | 8
C/C(=N\NC(=O)CN(c1ccc(Oc2ccccc2)cc1)S(C)(=O)=O)C(C)(C)C | i | 34 | -8 | 2 | 2 | 7 | 21 | x
CC(=O)N(Cc1cc2ccccc2[nH]c1=O)c1ccc(C)cc1 | i | -15 | 4 | -1 | -1 | -2 | 0 | 17
Cc1ccc(NC(=O)N2CCC(O)(c3ccc(Cl)cc3)CC2)cc1 | i | 13 | -2 | 0 | 2 | -4 | x | 2
CCOC(=O)C1CCCN(c2c(N3CCN(c4cccc(Cl)c4)CC3)c(=O)c2=O)C1 (stereo unspecified) | i | -8 | -1 | -2 | 3 | 4 | -7 | -11
CC1(C)OC(=O)C=C[C@]2(C)[C@H]3CC[C@@]4(C)[C@H](c5ccoc5)OC(=O)[C@H]5O[C@]54[C@]3(C)C(=O)C[C@@H]12 | x | 33 | x | -7 | -1 | x | -2 | -10
O=C(O)c1cc(N/N=C/c2ccc(-c3ccccc3)cc2)ccc1Cl | i | -177 | 25 | -6 | 2 | 6 | 9 | -19
CCc1ccc(CNc2ccc3c(c2)ncn3C)cc1 | i | x | -3 | 5 | 0 | -7 | x | x
CCn1c(SCC(=O)Nc2nccs2)nnc1-c1ccccc1 | i | x | 4 | 6 | 6 | 3 | -13 | -12
CCOC(=O)CC(=O)CSc1nc2ccc(OC)cc2cc1C | i | -38 | u | -6 | 3 | u | -10 | x
CC(C)OC(=O)c1ccc(NC(=O)C2C3CC4OC(=O)C2C4C3)cc1 (stereo unspecified) | i | x | -5 | -2 | 1 | 11 | -3 | -10
CCCCC(CC)Cn1c(O)c(/C=C2\C=NN=C2c2ccccc2)sc1=S (stereo unspecified) | i | -27 | 12 | -2 | -4 | -11 | 46 | -2
N#CCN(C(=O)COC(=O)C1CC2CCCC(C1)C2=O)c1ccccc1 (stereo unspecified) | i | -3 | x | 1 | 1 | x | 11 | -9
Cc1ccc(S(=O)(=O)c2nc(S(C)(=O)=O)sc2NCc2ccc3c(c2)OCO3)cc1 | i | -20 | -9 | 1 | 1 | -9 | -4 | x
CCOc1ccc(CCNC(=O)COC(=O)c2cc(S(=O)(=O)N3CCOCC3)ccc2F)cc1OCC | i | -9 | 9 | -2 | 2 | 5 | 15 | 8
Cc1c(/C(O)=C2\C(=O)C(=O)N(CCN(C)C)C2c2ccccc2)cnn1-c1ccccc1 (stereo unspecified) | x | -58 | 2 | -1 | 3 | -2 | -14 | -16
FC(F)(F)c1cccc(N2CCN(C3CC4CCC3C4)CC2)c1 (stereo unspecified) | i | -1 | 13 | -3 | 1 | 6 | 4 | -38
C=CCNC(=S)NNC(=O)c1ccco1 | i | 6 | -1 | 1 | 0 | -8 | -11 | x
Cc1nn(-c2ccccc2)c2c1C(c1ccc(F)cc1F)C(C#N)=C(N)O2 (stereo unspecified) | i | 6 | 8 | 1 | 0 | 0 | 4 | -15
CCOc1cc(C2C(C#N)=C(N)Oc3n[nH]c(CC)c32)ccc1OCCN1CCOCC1 (stereo unspecified) | i | x | -14 | -7 | 0 | 2 | x | -15
CC1CCCN(S(=O)(=O)c2ccc(NC(=O)CN3CCCCC3)cc2)C1 (stereo unspecified) | i | 11 | -17 | 1 | 1 | -6 | 43 | -16
CCOC(=O)c1c(C)n(C)c2ccc(OCC(N)=O)cc12 | i | -5 | 2 | 2 | 3 | 0 | 1 | -24

(more compounds)
SMILES | Rce1 inhib | Env fusion inh | PABP polyA inh | MT1-MMP act inh | MT1-MMP act inh RFP | eIF4H FP inh | CSC inhib | UUG fidelity | others
CC(=O)Nc1ccc(/C=N/N2C(C)CCCC2C)cc1 (stereo unspecified) | i | -13 | -2 | -2 | -2 | 4 | x | x
CC(C)=CC(=O)Nc1ccccc1C(N)=O | i | -9 | 9 | -3 | 4 | -6 | -4 | -5
CCOc1cc(N2CCOCC2)c(OCC)cc1NS(=O)(=O)c1ccc(Cl)s1 | x | 43 | 26 | 0 | -9 | 97* | 60 | -4 | eIF4H FP inh retest=79*;PABP polyA inh retest=49
CC1CCCN(C(=O)CN2C(=O)NC3(CCCCC3C)C2=O)C1 (stereo unspecified) | x | i | x | 4 | 2 | x | x | -15
c1c(CC2CCCC2)nnn1C[C@H]1CC[C@@H]([C@@H]2CC[C@H](Cn3cc(CC4CCCC4)nn3)O2)O1 | i | 1 | 4 | 3 | -1 | -4 | -25 | 0
O=C(Nc1ccc(N2CCCC2)c(Cl)c1)c1ccccc1F | x | -116 | x | 1 | 0 | x | x | -32
CN(c1ccc(OCC(=O)N2CCC(C(N)=O)CC2)cc1)S(=O)(=O)c1cccs1 | i | -41 | 5 | -2 | -4 | -2 | -10 | -16
N/C(COc1ccccc1)=N\NS(=O)(=O)c1ccccc1 | i | -4 | 0 | 1 | 2 | -7 | -15 | -10
Cc1c(C(=O)NCCN2CCOCC2)oc2ccc(Br)cc12 | i | u | x | -2 | 4 | x | x | -8
Cc1ccccc1NNC(N)=S | i | -15 | -4 | 0 | 4 | 6 | 7 | x

Rows were taken by chance; about 2.9% have a hit in one of these screens.
